# Bioassay records as filed in PubChem BioAssay.
# Vaccinia mCherry: vaccinia inhibition (mCherry reporter) | Vaccinia virus mCherry reporter infection, fluorescence; about a quarter of the inactives have no number | Potency, µM (titrated, usually from 36.5 µM), without a hit: at the highest dose activity change, negative = inhibition, usual class: inhibitors | actives 0.63% (n = 310,000) | AID 720579; active = well fitted inhibition curve with a large enough effect; inconclusive = small, poorly fitted or top-dose-only effect; inactive = no such curve, though single readings can be large or run the other way; tested in A549 cells; note: nearly all actives have a fitted effect of over 35% in size; inactives centre near -10
# Vaccinia Venus: vaccinia inhibition (Venus reporter). Vaccinia virus Venus reporter expression, fluorescence. Potency, µM (doses to about 36.5 µM), for inactives: at the highest dose activity change, negative = inhibition, hits mostly inhibitors. actives 0.46% (n = 330,000). AID 720580; active means well fitted inhibition curve with a large enough effect; inconclusive means small, poorly fitted or top-dose-only effect; inactive means no such curve, though single readings can be large or run the other way; tested in A549 cells; note: nearly all actives have a fitted effect of over 30% in size; inactives centre near -10
# * marks the source's active call; other numbers are inactive results; i = inactive; ? = inconclusive; · = no result given; & = joins results of further samples; [ ] = remark or other dose. % is set by controls: 0 for no effect and ±100 for the full control effect; potency is the fitted concentration of half-maximal effect.
SMILES,Vaccinia mCherry,Vaccinia Venus
CCSc1nnc2ccc(-c3ccco3)nn12,-4%,-2%
C[n+]1ccn(CC(=O)c2cccs2)c1,-3%,-15%
COC(=O)/C=C/c1cc(F)ccc1S(=O)(=O)NC(C)(C)C,0%,-13%&-17%
CCN(CC)CCNC(=S)Nc1ccc2nc(N3CCN(CC)CC3)cc(C)c2c1,?,?
COC(=O)Nc1nnc(-c2ccccc2OC)s1,-8%,?
NC(=O)C1(C(=O)O)OC1(c1ccc(Cl)cc1)c1ccccc1Cl (centres undefined),0%,-4%
Cc1ccc(-c2csc3nc(SCC(=O)N(C)C)n(Cc4ccccc4)c(=O)c23)cc1,-6%,?
CCN1CCN(S(=O)(=O)c2cc(C)c(OC)cc2C)CC1,-13%,-10%
O=C(CN1CCN(c2ccccn2)CC1)Nc1ccc2ccccc2c1,·,1%
CC(C)NC(=O)c1ccc2c(=O)n(CC3CCCO3)c(=S)[nH]c2c1 (centres undefined),-4%,-8%
COc1cccc(CN(C)C(=O)CC23CC4CC(CC(C4)C2)C3)c1OC,-6%,-3%
COC(=O)CNC(=O)C1CCN(S(=O)(=O)c2cccc3nsnc23)CC1,i,-12%
O=C(CNC(=O)c1ccc(Br)o1)Nc1cccc(S(=O)(=O)N2CCCC2)c1,?,-10%
O=C1N2CCSC2=NC1(Nc1ccccn1)C(F)(F)F (centres undefined),·,-21%
CC(C)CC(=O)Nc1ncnc2c1C(=O)CC(C)(C)C2,-13%,-7%
NC1=NC(c2cn(-c3ccccc3)nc2-c2cccs2)n2c(nc3ccccc32)N1 (centres undefined),·,-14%
CCN(CC(=O)Nc1ccc(NC(C)=O)cc1)C(=O)C1CCN(C(=O)c2ccccc2C)CC1,-9%,-2%
O=C(Nc1cccc(Cl)c1)OCc1cncs1,·,-26%
O=C(Cn1cnc2ccccc21)NCCCN1CCOCC1,i,-8%
CCN(CC)c1ccc(C(=O)N/N=C(\C)c2cccnc2)cc1,-9%,-6%
COc1ccc2c(c1)OC[C@H]1[C@H]2N2C(=O)CN(Cc3ccccc3)C(=O)[C@@]2(C)[C@H]1c1ccccc1,-25%,-25%
CCOC(=O)c1ccc(NC(=O)CC(C)n2nc(C)cc2C)cc1 (centres undefined),-12%,-5%
O=C(/C=C/C=C/c1ccccc1)CC1(O)C(=O)Nc2ccccc21 (centres undefined),-28%,-16%
Oc1ccc(C(=Nc2ccccc2)c2ccccc2)c(O)c1,-22%,-3%

# Already shown: 3 of the compounds above.
SMILES,Vaccinia mCherry,Vaccinia Venus
CCOC(=O)c1ccc(NC(=O)CC(C)n2nc(C)cc2C)cc1 (centres undefined),-12%,-5%
O=C(/C=C/C=C/c1ccccc1)CC1(O)C(=O)Nc2ccccc21 (centres undefined),-28%,-16%
Oc1ccc(C(=Nc2ccccc2)c2ccccc2)c(O)c1,-22%,-3%

# Next part.
SMILES,Vaccinia mCherry,Vaccinia Venus
COCCCNC(=O)CSc1nc2nc(C)c(Cc3ccccc3Cl)c(C)n2n1,-3%,-10%
CC(C)(C)OC(=O)N1CCC2(CC1)Oc1ccc(Cl)cc1C(=O)C21CC(c2ccc(Cl)cc2)=NO1 (centres undefined),i,-15%
COc1cc(OC)nc(Oc2ccc(N)c(C)c2)n1,-20%,-14%
CCCNS(=O)(=O)c1ccc(OCC(=O)Nc2ccc3c(c2)OCCO3)cc1,1%,27%
O=C(CCc1nnc(-c2ccc(-c3ccccc3)cc2)o1)NCCc1ccccn1,-7%,-9%
CCC(CC)NC(=O)COn1nnc2ccc(S(=O)(=O)N3CCOCC3)cc21,-1%,-17%
CCn1cc(C(=O)N2CCn3c(nc4ccccc43)C2)c(=O)c2ccc(C)nc21,-15%,?
COc1ccc(-c2nc(NCCN(C)C)nc3ccsc23)c(C)c1,-6%,0%
NC(=O)[C@@H]1CC2(CC(c3cccc(NC(=O)[C@@H]4CCC(=O)N4)c3)=NO2)CN1C(=O)Cc1ccc([N+](=O)[O-])cc1 (some centres undefined),i,1%
COc1ccc(C)cc1S(=O)(=O)Nc1ccc2c(c1)OCO2,0%,6%
Cc1nc2cc(N=NC3=C(O)CCCC3=O)ccc2s1,-7%,4%
CCc1nnc(SCC(=O)Nc2ccc(F)cc2)o1,-3%,-14%
CC(C)(C)OC(=O)Nc1ccccc1-n1nnnc1C(C(=O)c1ccc(F)cc1)N1CCN(c2ccccn2)CC1 (centres undefined),?,-11%
COc1ccc(OC)c(NC(=O)N2CCN(Cc3nc4ccc(C)cc4o3)CC2)c1,-5%,-8%
CCN(C(=O)COC(=O)CNC(=O)C1CCCCC1)c1ccccc1,-8%,-3%
CC(Sc1nc(NC(C)(C)C)nc(N(C)C)n1)C(=O)Nc1ccccc1 (centres undefined),i,-5%
COc1ccc2cc(-c3[nH]ncc3CN3C[C@@H]4CCC[C@H]3C4)ccc2c1,-20%,-22%
O=CC(O)C1OC(=O)C(O)C1O (centres undefined),6%,-5%
O=C(c1ccccc1)N1CCN(C2CC3CCC2C3)CC1 (centres undefined),-24%,-14%
C/C(Nc1cccc(F)c1)=C(/C#N)C(N)=O,1%,-4%
O=C(COC(=O)CCCOc1ccc(Cl)cc1Cl)Nc1cccc(Cl)c1,-2%,-17%
C#CC(CC)(CC)NC(=O)c1ccc(Br)s1,0%,-5%
Cc1nc(CS(=O)(=O)c2ccccc2)cc(N2CCOCC2)n1,3%,-6%
Cc1nc(-c2nnc(SCC(=O)Nc3cc(Cl)cc(Cl)c3)n2C)cs1,i[7.34 µM],-3%[7.34 µM]
COc1ccc(S(=O)(=O)NCCc2ccc(F)cc2)cc1,-2%,-9%
O=c1cc2nc(-c3ccccc3F)nc(SCc3ccc(Br)cc3)n2[nH]1,-15%,4%
COc1cc(/C=N/NC(=O)CNc2n[nH]c(=O)[nH]c2=O)ccc1O,-14%,-2%
CC(=O)Nc1ccc(S(=O)(=O)N2CCN=C2C)cc1,0%,-2%
COc1cccc(C(=O)CSc2nccn2C)c1,-8%,-10%
O=C(c1noc2c1CCCCC2)N1CCN(C(c2ccccc2)c2ccccc2)CC1,-10%,-7%
Cc1cc(C)c(O)c(C2(O)C(=O)c3ccccc3C2=O)c1,i[7.34 µM],-14%[7.34 µM]
CC1CC(C)CN(C(=O)C(C)N(C)CC(=O)Nc2ccc(F)cc2)C1 (centres undefined),-3%,-12%
O=C(NCC(c1cccs1)N1CCOCC1)c1cc(S(=O)(=O)N2CCOCC2)c(Cl)cc1Cl (centres undefined),-21%,-10%
COc1ccc(CCNC(=O)c2cnc3sc(N4CCCC4)nn3c2=O)cc1OC,-15%,-16%
O=C(NCCc1ccccc1)C1CCN(c2ncccn2)CC1,-6%,-11%
CCn1c(=O)c([N+](=O)[O-])c(N2CCN(Cc3ccc4c(c3)OCO4)CC2)c2ccccc21,-24%,?
COc1ccc(CNC(=O)c2cn(Cc3ccccc3OC)c(=O)s2)cc1,12%,1%
CCOC(=O)C1CCN(CCC(=O)Nc2ccc(C)cc2)CC1,-18%,-12%
Cc1ccc(N(CC(=O)NCc2ccc(F)cc2)S(=O)(=O)c2cccs2)cc1,-3%,-17%
COc1ccccc1N1CCN(C(c2ccccc2)c2nnnn2CCc2ccccc2)CC1 (centres undefined),-15%,-26%
Cc1cc(C(=O)N/N=C/c2cccnc2)c2ccccc2n1,-28%,-25%
Cc1cc(O)c2c(C)c(CC(=O)NCc3ccccc3Cl)c(=O)oc2c1,1%,4%
CCCOc1ccccc1C(=O)NCCCC(=O)O,·,-15%
COC(=O)C1(C(=O)OC)c2ncccc2N(S(=O)(=O)c2ccc(C)cc2)C1CC(=O)c1ccccc1 (centres undefined),-9%,-19%
O=C(NNC(=O)c1cccc(S(=O)(=O)N2CCN(c3ccccc3)CC2)c1)c1ccc(Cl)cc1,i,-16%
CC(C)C(NC(=O)C(C)N1C(=O)c2ccccc2C1=O)c1ccccc1 (centres undefined),-4%,-8%
O=C(CCN1C(=O)/C(=C\c2ccccc2)SC1=S)NNC(=O)c1ccccc1O,?,45%[activator]
Nn1c(SCC(=O)N2CCCc3ccccc32)nncc1=O,-8%,-11%
Cc1ccccc1NS(=O)(=O)c1ccc(C(=O)N2CCCCCC2)cc1,i,-15%
Cc1ccc(C(=O)NC2(C(Cl)Cl)N=C(c3ccccc3)N=C2N)cc1 (centres undefined),i,-11%
Cc1cc(C)c2c(c1)/C(=c1/sc3n(c1=O)CN(c1ccccc1)CN=3)C(=O)N2,i,-9%
CC1CN(Cc2ccco2)C(=S)NC1=O (centres undefined),-6%,5%
COc1ccccc1CNC(=O)CN1C(=O)CCCc2ccccc21,-20%,-17%
COC(=O)NC1CC2C=CC1C1C=CC21 (centres undefined),-9%,-12%
Cc1cc(NC(=O)c2ccc(Cn3nc(C)c(Br)c3C)o2)no1,-9%,-4%
CSc1ccc(S(=O)(=O)NC(C)c2ccccc2)cc1 (centres undefined),i,-10%
O=C(NCc1ccc2c(c1)OCO2)c1cc2c(s1)CS(=O)(=O)C2,-16%,-7%
CCC(=O)Nc1ccccc1C(=O)OCc1cc(=O)n2cc(C)sc2n1,-15%,-17%
CCOc1ccccc1/C=C/c1nc2ccccc2[nH]c1=O,-28%,-10%
CCOC(=O)Nc1cc(OCC)c(NC(=O)C2CC2)cc1OCC,-3%,-8%

# The listing continues.
SMILES,Vaccinia mCherry,Vaccinia Venus
C=CCc1ccc2oc(C(=O)OCC)cc(=O)c2c1O,-7%,-12%
O=C(Cc1ccc(NC(=O)C2CCN(C(=O)c3ccccc3)CC2)cc1)Nc1cccc(C(=O)N2CCCC2)c1,-10%,6%
O=S(=O)(c1ccccc1F)N1CCN(Cc2nc3ccccc3[nH]2)CC1,-27%,-8%
CC1(C(=O)Nc2cnc3ccccc3c2)CCN1Cc1ccc2c(c1)OCCO2 (centres undefined),4%,-2%
O=C(CSc1nc2c([nH]c3ccccc32)c(=O)n1-c1ccc(F)cc1)NCc1ccccc1,2%,?
Cc1ccc(C)c(S(=O)(=O)NCC(c2ccco2)S(=O)(=O)c2ccc(F)cc2)c1 (centres undefined),-8%[7.34 µM],0%[7.34 µM]
CCOc1ccc(Br)cc1S(=O)(=O)Nc1ccc(Cl)c(S(=O)(=O)N(CC)c2ccccc2)c1,-19%,-7%
CCc1cccc(CC)c1N(COC)C(=O)Cn1c(CC)nc2ccccc21,-23%,-22%
COc1cc(/C=N\Nc2nc(-c3cccs3)c(NC(C)=O)s2)ccc1O,-28%,4%
C=C[C@H](CC(C)C)N(Cc1ccccc1)S(=O)(=O)N(Cc1ccccc1)[C@@H](C=C)CC(C)C,-4%&-13%,-23%&-6%
CCN(CC)S(=O)(=O)c1ccc(NC(=O)COC(=O)c2cnc(C)cn2)cc1,-8%,-3%
COc1ccc(C(C)=O)cc1CSc1nc(NCc2ccc(Cl)cc2)c2ccccc2n1,-20%,-17%

# Look-ups from the list:
# Under Vaccinia mCherry, O=C(Cc1ccc(NC(=O)C2CCN(C(=O)c3ccccc3)CC2)cc1)Nc1cccc(C(=O)N2CCCC2)c1 has the entry -10%
# Under Vaccinia mCherry, CC1(C(=O)Nc2cnc3ccccc3c2)CCN1Cc1ccc2c(c1)OCCO2 (centres undefined) has the entry 4%
# Under Vaccinia mCherry, Cc1ccc(C)c(S(=O)(=O)NCC(c2ccco2)S(=O)(=O)c2ccc(F)cc2)c1 (centres undefined) has the entry -8%[7.34 µM]
# Under Vaccinia Venus, COc1cc(/C=N\Nc2nc(-c3cccs3)c(NC(C)=O)s2)ccc1O has the entry 4%
# Under Vaccinia mCherry, CCc1cccc(CC)c1N(COC)C(=O)Cn1c(CC)nc2ccccc21 has the entry -23%
# Under Vaccinia Venus, O=S(=O)(c1ccccc1F)N1CCN(Cc2nc3ccccc3[nH]2)CC1 has the entry -8%
# Under Vaccinia mCherry, O=C(CSc1nc2c([nH]c3ccccc32)c(=O)n1-c1ccc(F)cc1)NCc1ccccc1 has the entry 2%

# Additional compounds
SMILES,Vaccinia mCherry,Vaccinia Venus
CC(C)(C)Cc1c(-c2ccccc2)nc2ccc(Br)cn12,-1%,-9%
Nc1ccccc1C(=O)OCC(=O)N1CCc2ccccc21,-12%,-4%
COC(=O)c1ccccc1NC(=O)c1cccc(NC(=O)c2ccc(Br)o2)c1C,-12%,-27%
CCCCc1ccc(NC(=S)NCCc2ccc(S(N)(=O)=O)cc2)cc1,i,-21%
Cc1cccc(/C=C/c2ccccc2)n1,i,-11%
COc1ccc(C(O)c2cc(OC)ccc2OP(=O)(N(C)C)N(C)C)cc1 (centres undefined),-4%,-7%
CC(=O)NCCNC(=O)[C@H](Cc1ccccc1)NC(=O)c1cccs1,-6%,-13%
CC(=O)N1CCSc2ccc(S(=O)(=O)NCCc3ccc(C)cc3)cc21,-20%,-15%
CCOC(=O)C1=C(O)/C(=C/c2ccc(OCC(=O)O)c(OC)c2)SC1=Nc1ccc(OC)cc1,i,-12%
O=C1Oc2ccccc2C(=O)/C1=C/N1CCN(c2ccccc2F)CC1,-28%,-19%
CCCOc1ccc(-c2nc3ccccc3c(=O)o2)cc1,-9%,-4%
COc1ccc(OC)c(NC(=O)N2c3ccccc3Sc3ccccc32)c1,-21%,-20%
NC(=O)CSCc1c(Cl)cccc1Cl,i,0%
COc1cc2[nH]c(=S)n(Cc3ccco3)c(=O)c2cc1OC,-17%,-10%
CCOC(=O)c1c(NC(=O)c2ccc(S(=O)(=O)N(C)C3CCCCC3)cc2)sc2c1CCN(C(C)C)C2,-4%,-9%
COC(=O)[C@@]1(Cc2ccc(F)cc2)[C@H]2c3cc(C(=O)N4CCCC4)n(Cc4ccccc4)c3C[C@H]2CN1C(=O)c1ccccc1,4%,-15%
COc1ccc(CCC(=O)N2CCN(c3cccc(C)c3C)CC2)cc1,-12%,-11%
CC[C@@]12C(=O)N(c3cccc(Br)c3)C(=O)N1[C@H](c1ccc(OC)cc1)[C@@H]1C(=O)N(C(C)(C)C)C(=O)[C@@H]12,i,-12%
O=C(NNc1nc2c(F)cccc2s1)C1COc2ccccc2O1 (centres undefined),-20%,2%
